rRNA inh HTS = inhibits bacterial ribosomal RNA function over humanized ribosomes; E. coli WT GFP vs humanized-ribosome RFP mutants, fluorescence, 24 h; stronger effect = lower value; DMSO median 0, no signal -100; GFP signal change (wild-type ribosome), % (concentration not given with the values); 350,000 compounds, 1.6% hits;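 active = significant combined selectivity score with lowered wild-type GFP, culture density cut under 30%, mutant RFP and density less affected; inactive = any of these conditions unmet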; note: one replicate is shown; some compounds called inactive have numbers as strong as hits
rRNA inh HTS OD600 = second read-out of rRNA inh HTS, no call of its own (marks repeat the call); OD600 change, %; measured here: OD600 growth;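 optical density of the mix in the first replicate; 0 = DMSO median and -100 = no signal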
rRNA inh HTS RFP = recorded beside rRNA inh HTS, whose call it bears; RFP signal change, %; measured here: RFP humanized mutant strains;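 first replicate; 0 = DMSO median and -100 = no signal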
* hit, by the source's call; & = joins results of further samples.

SMILES | rRNA inh HTS | rRNA inh HTS OD600 | rRNA inh HTS RFP
COc1ccc(S(=O)(=O)Nc2ccc3c(c2)CC(=O)N([C@H](C)CO)C[C@H](C)[C@@H](CN(C)S(=O)(=O)c2ccccc2)O3)cc1 | 0.0 | -4.7 | 2.2
C[C@H]1CCCCO[C@@H](CN(C)S(=O)(=O)c2cccs2)[C@@H](C)CN([C@@H](C)CO)C(=O)c2cc(N(C)C)ccc2O1 | -6.3 | -10.9 | 3.2
COc1ccc2c3c([nH]c2c1)[C@@H](CO)N(Cc1nccs1)CC31CN(C(=O)C2CCCC2)C1 | -4.5 | -1.5 | 1.3
O=C(C[C@H]1CC[C@H](NC(=O)Cc2ccccn2)[C@H](CO)O1)NCCc1ccccc1 | 1.6 | 3.8 | 0.7
O=C(c1cccnc1)N1C[C@@H]2N[C@H](C1)C2c1ccc(-c2cccnc2)cc1 (stereo partly specified) | 1.3 | 11.3 | -1.8
COc1ccccc1N1CCN(S(=O)(=O)CCNC(=O)c2cccs2)CC1 | -0.1 | 0.5 | 0.3
C[C@@H]1CCCCO[C@@H](CN(C)C(=O)NC2CCCCC2)[C@@H](C)CN([C@H](C)CO)C(=O)c2cc(NC(=O)Nc3ccc4c(c3)OCO4)ccc2O1 | 4.2 | -1.2 | -1.9
CC(C)NC(=O)Nc1ccc2c(c1)C(=O)N(C)C[C@@H](C)[C@@H](CN(C)C)O2 | 2.7 | 5.9 | -1.3
O=C(C[C@H]1CC[C@@H]2[C@H](COC[C@H](O)CN2Cc2ccc(F)cc2)O1)NCc1ccncn1 | 2.0 | 14.3 | -1.0
C[C@@H]1CN([C@@H](C)CO)C(=O)c2cc(-c3ccc(F)cc3)cnc2O[C@@H]1CN(C)Cc1ccccn1 | 4.7 | -7.1 | -2.8
O=C(c1cccnc1)N1C[C@@H]2[C@H](c3ccccc31)[C@@H](CO)N2C(=O)Nc1ccccc1 | 4.3 | 0.5 | 1.8
CN1C(=O)c2cc(NC(=O)C3CC3)ccc2OC[C@@H]2O[C@H](CC(=O)NCC3CCCCC3)CC[C@@H]21 | -4.2 | -6.5 | 2.9
CC(C)NC(=O)Nc1ccc2c(c1)C(=O)N([C@H](C)CO)C[C@@H](C)[C@@H](CN(C)S(=O)(=O)c1cn(C)cn1)O2 | 3.2 | 4.3 | 0.1
C[C@@H]1CN(C)C(=O)Cc2cc(NS(C)(=O)=O)ccc2O[C@H]1CN(C)C | 1.2 | 3.2 | -1.2
Cc1cccc(S(=O)(=O)N2CC[C@@H]3[C@@H](CO)N(C)c4ccc(-c5ccc(C#N)cc5)cc4[C@@H]32)c1 | 0.7 | -5.8 | -7.2
C[C@H]1CN([C@@H](C)CO)C(=O)Cc2cc(NC(=O)Nc3ccc4c(c3)OCO4)ccc2O[C@@H]1CN(C)C(=O)Nc1ccc(F)cc1 | -3.2 | 0.7 | -1.3
C[C@H](CO)N1C[C@H](C)[C@H](CN(C)S(C)(=O)=O)Oc2c(NC(=O)Nc3ccc(C(F)(F)F)cc3)cccc2C1=O | -5.7 | -7.4 | -0.7
O=C(c1ccc(F)cc1)N1CC(=O)N2[C@@H](CO)[C@H](c3ccc(C4=CCCC4)cc3)[C@@H]2C1 | 4.2 | 4.9 | -0.1
C[C@@H]1CN([C@H](C)CO)C(=O)CCCn2cc(nn2)CO[C@H]1CN(C)S(=O)(=O)c1ccccc1C#N | -0.4 | 4.2 | -0.6
C[C@@H]1CN([C@@H](C)CO)C(=O)c2cc(NS(=O)(=O)c3cn(C)cn3)ccc2O[C@@H](C)CCCCO[C@@H]1CN(C)C(=O)Nc1ccccc1 | -0.7 | -2.6 | -3.8
Cc1ccc(-c2ccccc2[C@H]2[C@@H](CO)N(C(=O)NC3CCCC3)[C@H]2C#N)cc1 | 9.2 | -2.8 | 1.4
COc1ccccc1C(O)c1ncc(-c2ccccc2C)[nH]1 (stereo unspecified) | 3.6 | 2.5 | -2.1
CN1C(=O)c2cc(NS(=O)(=O)c3ccc(F)cc3)ccc2OC[C@@H]2O[C@@H](CC(=O)NCC(F)(F)F)CC[C@@H]21 | -2.4 | -13.3 | 0.6
CN(C)C(=O)c1ccc(-c2ccc([C@H]3[C@@H](C#N)N[C@@H]3CO)cc2)cc1 | 0.9 | 1.0 | -3.1
C[C@@H]1CCCCO[C@@H](CN(C)C(=O)C2CCCCC2)[C@H](C)CN([C@H](C)CO)C(=O)c2cc(NC(=O)c3ccccc3)ccc2O1 | -3.3 | -4.9 | 3.3

Fetched one by one from the entries so far (six):
SMILES | rRNA inh HTS | rRNA inh HTS OD600 | rRNA inh HTS RFP
Cc1ccc(-c2ccccc2[C@H]2[C@@H](CO)N(C(=O)NC3CCCC3)[C@H]2C#N)cc1 | 9.2 | -2.8 | 1.4
C[C@@H]1CCCCO[C@@H](CN(C)C(=O)C2CCCCC2)[C@H](C)CN([C@H](C)CO)C(=O)c2cc(NC(=O)c3ccccc3)ccc2O1 | -3.3 | -4.9 | 3.3
O=C(c1cccnc1)N1C[C@@H]2N[C@H](C1)C2c1ccc(-c2cccnc2)cc1 (stereo partly specified) | 1.3 | 11.3 | -1.8
C[C@H](CO)N1C[C@H](C)[C@H](CN(C)S(C)(=O)=O)Oc2c(NC(=O)Nc3ccc(C(F)(F)F)cc3)cccc2C1=O | -5.7 | -7.4 | -0.7
C[C@@H]1CCCCO[C@@H](CN(C)C(=O)NC2CCCCC2)[C@@H](C)CN([C@H](C)CO)C(=O)c2cc(NC(=O)Nc3ccc4c(c3)OCO4)ccc2O1 | 4.2 | -1.2 | -1.9
COc1ccc2c3c([nH]c2c1)[C@@H](CO)N(Cc1nccs1)CC31CN(C(=O)C2CCCC2)C1 | -4.5 | -1.5 | 1.3

(listing goes on)
SMILES | rRNA inh HTS | rRNA inh HTS OD600 | rRNA inh HTS RFP
Fc1ccc(-c2ccc(C3[C@@H]4CN(Cc5ccccc5)C[C@H]3N4)cc2)cc1 (stereo partly specified) | -57.5&-55.7 | -80.7&-79.4 | -20.6&-19.1
CC(C)Oc1cc(F)ccc1-c1cc(C(=O)NCc2ccccc2)[nH]n1 | -23.2 | -56.9 | 3.8
O=C(C[C@H]1CC[C@@H](NC(=O)NC2CCCC2)[C@H](CO)O1)NCc1ccc(F)cc1 | 3.5 | 2.1 | 1.2
O=S(=O)(NCC[C@H]1CC[C@H](NS(=O)(=O)c2cccc(Cl)c2)[C@@H](CO)O1)c1cccc(F)c1 | -7.7 | -20.1 | 4.9
CNC[C@H]1Oc2ccc(NC(=O)CCN3CCOCC3)cc2C(=O)N([C@@H](C)CO)C[C@H]1C | -2.6 | -4.2 | 0.7
O=C(C[C@@H]1C[C@H]2c3cc(NS(=O)(=O)c4ccc(F)cc4)ccc3O[C@H]2[C@@H](CO)O1)NCc1ccccn1 | -1.2 | 6.0 | -2.9
O=C(C[C@H]1CC[C@@H]2[C@H](COC[C@H](O)CN2Cc2ccc3c(c2)OCO3)O1)Nc1ccccc1 | -4.9 | -7.1 | -0.6
COCCNc1ncnc2c1ncn2[C@H]1CN(CCOC)C[C@@H](CO)O1 | 14.7 | 5.3 | 1.6
C[C@@H]1CCCCO[C@@H](CN(C)Cc2ccc(Cl)c(Cl)c2)[C@@H](C)CN([C@H](C)CO)C(=O)c2cc(NC(=O)Nc3ccc(C(F)(F)F)cc3)ccc2O1 | -0.6 | 5.9 | -0.3
CCCC#Cc1ccc([C@H]2[C@@H](CO)N3C(=O)CN(C(=O)Nc4cc(F)ccc4F)C[C@H]23)cc1 | 2.0 | -25.1 | 22.6
Cc1ccc(S(=O)(=O)Nc2ccc3c(c2)C(=O)N([C@H](C)CO)C[C@H](C)[C@@H](CN(C)C(=O)Nc2ccc(C(F)(F)F)cc2)OCCCC[C@H](C)O3)cc1 | 1.5 | 3.0 | 0.5
CN1C(=O)c2cc(NC(=O)c3cnccn3)ccc2OC[C@H]2O[C@H](CC(=O)NCC3CC3)CC[C@@H]21 | 2.4 | 6.7 | -2.5
C[C@@H]1CCCCO[C@@H](CN(C)C(=O)C2CCCCC2)[C@H](C)CN([C@@H](C)CO)C(=O)c2cc(NC(=O)Nc3ccc4c(c3)OCO4)ccc2O1 | -2.4 | -7.4 | 2.5
COc1ccccc1NC(=O)N[C@H]1CC[C@H](CCNS(=O)(=O)c2ccccc2)O[C@@H]1CO | -4.1 | -2.9 | -1.5
CCCNC(=O)[C@H]1[C@H](CO)[C@H]2Cn3c(cccc3=O)[C@@H]1N2C(=O)C1CCC1 | 0.1 | -2.2 | -2.9
N#C[C@H]1[C@@H](c2ccc(C#Cc3cccc(F)c3)cc2)[C@@H](CO)N1C(=O)C1CCC1 | -6.4 | -13.6 | 0.4
C[C@H]1CN([C@@H](C)CO)C(=O)c2cc(NC(=O)CCN3CCOCC3)ccc2O[C@H]1CN(C)C(=O)Nc1ccc(C(F)(F)F)cc1 | 2.8 | 4.5 | 0.1
CCCS(=O)(=O)NC(=O)C1(C)CCN(C(=O)c2nc(C)oc2C)C1 (stereo unspecified) | 6.6 | 14.9 | -1.7
OC[C@@H]1CN(Cc2cccs2)C[C@H](n2cnc3c(NC4CCC4)ncnc32)O1 | 7.0 | 0.1 | -1.4
CNC[C@@H]1Oc2ccc(NS(=O)(=O)c3ccccc3)cc2C(=O)N([C@@H](C)CO)C[C@H]1C | 1.2 | 6.0 | -3.8
CN1CCN(C(=O)C[C@H]2CC[C@@H]3[C@H](COC[C@H](O)CN3C(=O)C3CCCC3)O2)CC1 | 0.2 | 23.6 | 5.2
Cc1noc(C)c1NC(=O)Nc1ccc2c(c1)CC(=O)N([C@H](C)CO)C[C@@H](C)[C@H](CN(C)C(=O)Nc1ccc3c(c1)OCO3)O2 | 3.1 | 6.8 | -1.3
C[C@H]1CN([C@@H](C)CO)C(=O)c2cc(C#CC3CCCCC3)cnc2O[C@@H]1CN(C)C(=O)C1CCCCC1 | 1.7 | -2.9 | -0.7
CCCNC(=O)N1C[C@H](O)COC[C@@H]2O[C@H](CC(=O)NCc3ccc(Cl)c(Cl)c3)CC[C@H]21 | -5.3 | -12.0 | -3.4
CNc1cc(-c2cc(OC)ccc2OC)ncn1 | 8.0 | 7.9 | -0.3
(cont.)
SMILES | rRNA inh HTS | rRNA inh HTS OD600 | rRNA inh HTS RFP
CSc1ccccc1C(=O)C1CCCN(C(=O)c2cccc(Cn3cccn3)c2)C1 (stereo unspecified) | 5.4 | 0.2 | -0.7
C[C@@H]1CN([C@@H](C)CO)C(=O)c2cccc(NC(=O)Nc3ccc(C(F)(F)F)cc3)c2O[C@H]1CN(C)S(=O)(=O)c1cccs1 | -0.4 | -2.4 | -1.3
C[C@@H]1CN([C@@H](C)CO)C(=O)Cc2cc(NC(=O)c3ccncc3)ccc2O[C@@H]1CN(C)C(=O)Nc1ccc(F)cc1 | 1.5 | 6.9 | 0.5
C[C@@H]1CN([C@@H](C)CO)C(=O)c2cccc(NC(=O)C3CC3)c2O[C@@H]1CN(C)C(=O)Nc1ccccc1 | 6.1 | 11.3 | 0.1
C[C@H]1CN([C@@H](C)CO)C(=O)c2cccc(NC(=O)C3CC3)c2O[C@H]1CN(C)C(=O)Nc1ccc(F)cc1 | -0.7 | -10.0 | -3.4
N#C[C@@H]1[C@@H](c2ccc(C#Cc3ccccc3F)cc2)[C@H](CO)N1C(=O)C1CCC1 | 0.9 | 0.9 | 0.3
O=C(NC[C@@H]1[C@H](c2ccccc2)[C@H](CO)N1Cc1ccccn1)C1CCC1 | 1.0 | 9.0 | 0.5
O=C(C[C@@H]1C[C@@H]2c3cc(NC(=O)C4CCOCC4)ccc3O[C@@H]2[C@@H](CO)O1)NCc1ccc(Cl)cc1 | 2.8 | 11.1 | 0.0
COc1ccccc1C(=O)Nc1ccc2c(c1)OC[C@H](C)N(C)C[C@H](C)[C@H](OC)CN(C)C2=O | 4.3 | 12.9 | -2.4
COc1cccc(CNC(=O)C[C@H]2CC[C@@H]3[C@@H](COc4ccc(NS(=O)(=O)c5ccccc5F)cc4C(=O)N3C)O2)c1 | -3.2 | -20.1 | -1.3
C[C@@H]1CCCCO[C@H](CN(C)C(=O)Nc2cccc3ccccc23)[C@@H](C)CN([C@H](C)CO)C(=O)c2cc(NC(=O)CCC(F)(F)F)ccc2O1 | 3.2 | 10.6 | 2.5
C[C@@H]1CN([C@@H](C)CO)C(=O)Cc2cc(NS(C)(=O)=O)ccc2O[C@@H]1CN(C)CC1CC1 | 4.4 | 6.4 | -0.9
Cc1noc(C)c1NC(=O)N[C@@H]1CC[C@H](CCNC(=O)C2CC2)O[C@@H]1CO | 3.4 | 3.9 | -2.8
C[C@H](CO)N1C[C@H](C)[C@H](CN(C)S(=O)(=O)c2cccs2)Oc2ccc(NC(=O)Cn3cnnn3)cc2CC1=O | -1.6 | 0.6 | 0.8
COc1ccc2c3c(n(C)c2c1)[C@@H](CO)NCC31CCN(S(=O)(=O)c2cccc(F)c2)CC1 | -14.2 | -49.8 | 12.4
O=C(Nc1cc(F)ccc1F)N1[C@@H]2CNC[C@H]1C2c1ccc(/C=C/c2ccccc2)cc1 (stereo partly specified) | -29.4&-53.7 | -66.9&-75.5 | -0.4&-15.5
C[C@@H]1CCCCO[C@H](CN(C)C)[C@@H](C)CN([C@H](C)CO)C(=O)c2cc(NC(=O)c3ccncc3)ccc2O1 | 2.0 | 5.8 | -2.2
COc1ccc(NC(=O)C2Cc3c(-c4cccc(C(C)=O)c4)ccnc3O2)cc1OC (stereo unspecified) | 2.2 | -0.9 | 1.5
CC(C)NC(=O)Nc1ccc2c(c1)C(=O)N([C@@H](C)CO)C[C@@H](C)[C@@H](CN(C)C(=O)Nc1cccc3ccccc13)O2 | -0.3 | 3.8 | 0.2
O=C(CCN1CCCCC1)NCC[C@H]1CC[C@@H](NC(=O)C2CC2)[C@@H](CO)O1 | 1.6 | 11.8 | -2.2
CNC[C@H]1OCCCC[C@H](C)Oc2ccc(NS(=O)(=O)c3c(C)noc3C)cc2C(=O)N([C@@H](C)CO)C[C@H]1C | 0.9 | -9.2 | -4.0

These rows are one share of the data, so the mix of outcomes need not match the whole.
